Assay outcomes: PubChem, ICCB-Longwood Screening Facility, Harvard Medical School
p53 HeLa: p53 stabilisation in HPV-positive human cells, imaging, p53-positive nuclei imaging, 24 h, 48 h (AID 1508601); p53-positive nuclei imaging, 48 h; hits give high values; some inactives read as strong as hits; p53-positive nuclei, normalised, % at 11 µM unless noted; actives 1% (n = 5,700);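 active = mean of two plates above 50% at 24 h or at 48 h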;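 note: HPV-positive HeLa cells with a fluorescent p53 stability reporter; 0% = vehicle and 100% = proteasome inhibitor control; doses worked out from stocks diluted about 900-fold with the highest of each compound shown; many of its hits are not listed in these tables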
p53 HeLa cells 24 h: second read-out of p53 HeLa, no call of its own (marks repeat the call); nuclei count, normalised, %; measured here: cell number at 24 h;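 100% = vehicle wells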
p53 HeLa p53 24 h: also measured in p53 HeLa; calls as there; p53-positive nuclei, normalised, %; measured here: p53 positive nuclei at 24 h;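 0% = vehicle and 100% = positive control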
p53 HeLa cells 48 h: also measured in p53 HeLa; calls as there; nuclei count, normalised, %; measured here: cell number at 48 h;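 100% = vehicle wells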
Numbers without * were called inactive; [ ] = remark or other dose. Only part of the results is shown (hit frequency here may not be typical).

Structure,p53 HeLa cells 24 h,p53 HeLa,p53 HeLa cells 48 h,p53 HeLa p53 24 h
C[C@]12CCC(=O)C=C1[C@@H]1C[C@@H]1[C@H]1[C@@H]3[C@@H]4C[C@@H]4[C@]4(CCC(=O)O4)[C@@]3(C)CC[C@H]12,86,4.0[3.7 µM],76,0.3
COc1c2ccoc2cc2oc(=O)ccc12,112,-0.2[3.7 µM],106,-0.3
CCCCCCCCCCC(=O)O,113,-0.1,112,0.0
S=C(NCc1ccc2c(c1)OCO2)N1CCN(c2ncnc3c2oc2ccccc23)CC1,86,0.0,87,0.0
CCOc1ccc(CC2NC(=O)CCSSCC(C(=O)N3CCCC3C(=O)NC(CCCN)C(=O)NCC(N)=O)NC(=O)C(CC(N)=O)NC(=O)C(C(C)O)NC(=O)[C@@H](C(C)CC)NC2=O)cc1 (some centres undefined),95,0.1,99,0.0
CCOC(=O)C=CC(CC(C)C)NC(=O)C(CO)NC(=O)C(NC(=O)c1cccc(O)c1C)C(C)C (centres undefined),115,-0.2,118,-0.2
Cc1nc2ccc(NC(=O)Nc3ccnc4cccnc34)cc2o1,103,-0.1,99,-0.1
CC1CN(Cc2ccccc2)CC1c1nc2c(cnn2C2CCOCC2)c(=O)[nH]1 (centres undefined),82,0.1,87,0.1
CC(C)N(CCC(c1ccccc1)c1cc(CO)ccc1O)C(C)C (centres undefined),107,0.0[3.7 µM],107,-0.1
NC(N)=Nc1nc(CSCCC(N)=NS(N)(=O)=O)cs1,107,0.1[3.7 µM],104,-0.1
CCc1c(C)[nH]c2c1C(=O)C(CN1CCOCC1)CC2 (centres undefined),92,0.0,95,0.1
NC(=O)c1ccc(-c2nc(-c3ccc4c(c3)OCCO4)c(-c3ccccn3)[nH]2)cc1,105,0.1,100,0.1
C=CC(=O)Nc1cccc(Nc2nc(Nc3ccc(NC4CN(CCF)C4)cc3OC)ncc2C(F)(F)F)c1,115,-0.1[3.7 µM],104,-0.3
CC(NC(=O)C(C)(C)Oc1ccc(C(F)(F)F)cn1)C(Cc1ccc(Cl)cc1)c1cccc(C#N)c1 (centres undefined),94,0.1,93,0.0
CCNC(=O)C1OC(n2cnc3c(N)nc(NCCc4ccc(CCC(=O)O)cc4)nc32)C(O)C1O (centres undefined),72,-0.1[3.7 µM],74,-0.6
CCC(=O)O[C@@]1(C(=O)CCl)[C@@H](C)C[C@H]2[C@@H]3CCC4=CC(=O)C=C[C@]4(C)[C@]3(F)[C@H](O)C[C@@]21C,57,0.0[3.7 µM],54,0.0
CCN(CCO)CCCOc1ccc2c(Nc3cc(CC(=O)Nc4cccc(F)c4)[nH]n3)ncnc2c1,49,0.5,29,0.0
COc1cc2c(N3CCN(C(=O)Nc4ccc(OC(C)C)cc4)CC3)ncnc2cc1OCCCN1CCCCC1,81,-0.1,83,0.1
Nc1nc2c(ncn2CCC(CO)CO)c(=O)[nH]1,109,-0.1[3.7 µM],101,-0.2
Nc1cc(C(F)(F)F)c(-c2cc(N3CCOCC3)nc(N3CCOCC3)n2)cn1,46,0.3,30,0.4
N#CC(=C1SCC(c2ccc(Cl)cc2Cl)S1)n1ccnc1 (centres undefined),114,0.1[3.7 µM],109,-0.3
O=C(O)Cc1c(C(=O)O)n(Cc2cccc3ccccc23)c2ccc(F)cc12,117,0.0,111,0.2
O=C(C=CC=Cc1ccc2c(c1)OCO2)N1CCCCC1,106,-0.3[3.7 µM],107,-0.3
O=C(C=Cc1ccc(O)c(O)c1)OCCc1ccccc1,106,0.1[3.7 µM],104,-0.2
CC(=O)Nc1ccc(C(=O)Nc2ccccc2N)cc1,93,0.1[3.7 µM],90,-0.3
Cc1ccc(C(=O)Nc2cccc(C(F)(F)F)c2)cc1Nc1nc(-c2cccnc2)nc2c1cnn2C,51,1.6,38,0.8
Cc1c(Nc2ncccc2C(=O)O)cccc1C(F)(F)F,118,-0.2[3.7 µM],111,-0.5
Cc1nc2ccccc2n1S(=O)(=O)c1ccc(F)cc1,100,0.3,100,-0.1
COc1cc2ccc(=O)oc2c(OC)c1OC,111,-0.1,112,0.0
CCOC(=O)CC(=O)N1CCSC1COc1ccccc1OC (centres undefined),112,-0.2[3.7 µM],103,-0.4
CC(=O)Oc1ccccc1C(=O)Nc1ncc([N+](=O)[O-])s1,112,0.0[3.7 µM],111,0.0
CCOC(=O)C(CCc1ccccc1)NC1CCCN2CCCC(C(=O)O)N2C1=O (centres undefined),116,-0.1[3.7 µM],112,-0.4
CCCC(=O)OCOC(=O)C1=C(C)NC(C)=C(C(=O)OC)C1c1cccc(Cl)c1Cl (centres undefined),110,-0.1[3.7 µM],103,-0.3
CN(CCOc1ccc(-c2ccc3c(c2)OCO3)cc1C(C)(C)C)CC(=O)O,103,-0.2,110,0.0
Cn1cnc2c(F)c(Nc3ccc(Br)cc3Cl)c(C(=O)NOCCO)cc21,82,0.1,91,0.0
O=S(=O)(c1ccccc1)N(CC(F)(F)F)c1ccc(C(O)(C(F)(F)F)C(F)(F)F)cc1,101,0.2[3.7 µM],102,0.1
C=CC(C)(O)CCC1[C@@]2(C)CCCC(C)(C)C2CC[C@@]1(C)O (some centres undefined),109,0.1[3.7 µM],102,-0.4
CNCCc1ccccn1,118,-0.1[3.7 µM],107,-0.1
NCCCCCCCN=C(N)N,111,0.0,108,0.1
O=C(c1ccc(Nc2nccc(-c3cc4ccccc4s3)n2)cc1)N1CCC(N2CCCC2)CC1,118,0.8[3.7 µM],114,-0.3
Nc1nc(Cl)nc2c1ncn2C1OC(CO)C(O)C1F (centres undefined),56,-0.5[3.7 µM],49,-0.4
CC(C)C(=O)c1cn(CC(=O)COc2ccc(Oc3ccccc3)cc2)c2ccc(C(=O)O)cc12,101,-0.2,100,-0.1
CC1=CC(=O)c2ccccc2C1=O,112,-0.1,126,-0.1
CCCN(CCC)c1cc(C)nc2c(-c3cnc(N(C)C)cc3C)c(C)nn12,98,0.0,103,0.0
CC(=O)OCC(=O)[C@@]1(O)CC[C@@H]2[C@@H]3CCC4=CC(=O)C=C[C@]4(C)[C@@]3(Cl)C(Cl)C[C@@]21C (some centres undefined),106,-0.1,100,-0.2
C=C1C(=CC=C2CCC[C@]3(C)C(C(C)CCCC(C)C)CC[C@@H]23)CC(O)CC1O (some centres undefined),120,0.6[3.7 µM],113,0.2
O=C(O)Cn1c(C(=O)Nc2nc(-c3ccccc3Cl)cs2)cc2ccccc21,107,0.0,109,0.0
CN1CCCC(n2nc(Cc3ccc(Cl)cc3)c3ccccc3c2=O)CC1 (centres undefined),113,0.0[3.7 µM],114,-0.2
Cc1cc(C)c(-c2csc(NC(=O)c3ccccc3)n2)c(C)c1,107,-0.2[3.7 µM],107,-0.4
C[C@@H](NCCCc1cccc(C(F)(F)F)c1)c1cccc2ccccc12,102,-0.5[3.7 µM],105,0.0

(list continues)
Structure,p53 HeLa cells 24 h,p53 HeLa,p53 HeLa cells 48 h,p53 HeLa p53 24 h
COc1cc2c(cc1OC)-c1cc3ccc(OC)c(OC)c3c[n+]1CC2,118,-0.1[3.7 µM],109,-0.4
CCC(CO)NCCNC(CC)CO (centres undefined),109,0.1[3.7 µM],107,-0.2
CCN=C1N[C@@H]2C(O)C(O)C(CO)O[C@@H]2S1 (some centres undefined),110,-0.1[3.7 µM],109,-0.4
CCCCOc1c(C(=O)c2c(F)cc(C)cc2F)cnc2n[nH]cc12,100,0.4[3.7 µM],102,-0.2
CC(CCC(=O)O)C1CC[C@H]2[C@@H]3CC(O)[C@@H]4CC(O)CC[C@]4(C)[C@@H]3CC[C@]12C (some centres undefined),109,0.1[3.7 µM],102,-0.1
CC1CC2OC2C=CC=CC(=O)Cc2c(Cl)c(O)cc(O)c2C(=O)O1 (centres undefined),43,-0.2,31,-0.1
CC1(C)SC2C(NC(=O)C(C(=O)O)c3ccsc3)C(=O)N2C1C(=O)O (centres undefined),110,0.0[3.7 µM],109,-0.2
CCCCCCCCCCCCCCCCn1cc[n+](Cc2ccccc2)c1C,39,2.1,26,1.9
O=c1ccn(C2OC(CO)C(O)C2O)c(=O)[nH]1 (centres undefined),109,0.0[3.7 µM],107,-0.2
NC1(C(=O)NC(CCO)c2ccc(Cl)cc2)CCN(c2ncnc3[nH]ccc23)CC1 (centres undefined),113,-0.1,125,-0.1
CCCCOc1ccc(C(=O)Nc2ccc(F)cc2F)cc1,114,-0.3[3.7 µM],111,-0.3
CCCCc1ncc(C=C(Cc2cccs2)C(=O)O)n1Cc1ccc(C(=O)O)cc1,116,-0.2[3.7 µM],102,-0.3
CC(C)(C)NCC(O)COc1nsnc1N1CCOCC1 (centres undefined),113,-0.1[3.7 µM],112,-0.3
CC(C)(CO)c1cc2cc(NC(=O)C3(c4ccc5c(c4)OC(F)(F)O5)CC3)c(F)cc2n1CC(O)CO (centres undefined),113,0.1,111,0.1
CCN(CC=CC#CC(C)(C)C)Cc1cccc(OCc2cc(-c3ccsc3)cs2)c1,99,-0.1,94,-0.1
CNc1ncnc2c1ncn2C1OC(CO)C(O)C1O (centres undefined),106,-0.1[3.7 µM],101,-0.3
COc1cc(N2CCC(C(N)=O)CC2)ccc1Nc1nc(N)c(Cl)c(Nc2ccccc2S(=O)(=O)C(C)C)n1,87,-0.3,96,0.0
COc1ccc(CCc2nc3cc(-c4c(C)noc4C)ccc3n2CC(C)N2CCOCC2)cc1Cl (centres undefined),121,0.0[3.7 µM],119,-0.3
CC=C1NC(=O)C2CSSCCC=CC(CC(=O)NC(C(C)C)C(=O)N2)OC(=O)C(C(C)C)NC1=O (centres undefined),45*,138*[3.7 µM],13*,79*
COc1ccc(C2(C#N)CCC(C(=O)O)CC2)cc1OC1CCCC1 (centres undefined),106,-0.5[3.7 µM],103,-0.4

Part of the list above, set out differently.
Sequence of screens – p53 HeLa cells 24 h, p53 HeLa, p53 HeLa cells 48 h, p53 HeLa p53 24 h
CC(=O)Nc1ccc(C(=O)Nc2ccccc2N)cc1
 : 93, 0.1[3.7 µM], 90, -0.3
Cc1ccc(C(=O)Nc2cccc(C(F)(F)F)c2)cc1Nc1nc(-c2cccnc2)nc2c1cnn2C
 : 51, 1.6, 38, 0.8
Cc1c(Nc2ncccc2C(=O)O)cccc1C(F)(F)F
 : 118, -0.2[3.7 µM], 111, -0.5
Cc1nc2ccccc2n1S(=O)(=O)c1ccc(F)cc1
 : 100, 0.3, 100, -0.1
COc1cc2ccc(=O)oc2c(OC)c1OC
 : 111, -0.1, 112, 0.0
CCOC(=O)CC(=O)N1CCSC1COc1ccccc1OC (centres undefined)
 : 112, -0.2[3.7 µM], 103, -0.4
CC(=O)Oc1ccccc1C(=O)Nc1ncc([N+](=O)[O-])s1
 : 112, 0.0[3.7 µM], 111, 0.0

(next part)
Structure,p53 HeLa cells 24 h,p53 HeLa,p53 HeLa cells 48 h,p53 HeLa p53 24 h
CCCS(=O)(=O)Nc1ccc(F)c(C(=O)c2c[nH]c3ncc(Cl)cc23)c1F,114,-0.2,113,0.1
Clc1ccc(CCCOCCCN2CCCCC2)cc1,94,0.0,98,-0.1
Cc1cc(=O)oc2c(C=O)c(O)ccc12,109,-0.1,110,-0.2
Nc1cccc(S(=O)(=O)N2CCCN(S(=O)(=O)c3ccc4c(c3)OCCO4)CC2)c1,109,0.0,108,-0.1
CN(C)CCC(c1ccccc1)c1ccccn1 (centres undefined),89,-0.2[3.7 µM],89,-0.3
C=CC(=O)Nc1cccc(Oc2nc(Nc3ccc(N4CCN(C)CC4)cc3)ncc2Cl)c1,64,-0.2[3.7 µM],64,-0.4
CC(O)=C(C#N)C(=O)Nc1ccc(C(F)(F)F)cc1,95,0.4,83,0.0
O=C(O)c1ccc(O)c2ncccc12,111,0.0[3.7 µM],106,-0.3
C[C@]12CC[C@H]3c4ccc(OC(=O)c5ccccc5)cc4CC[C@H]3[C@@H]1CCC2O (some centres undefined),120,-0.1[3.7 µM],111,-0.2
CC(C)c1ccc(NC(=O)Cn2cnc3c2c(=O)n(C)c(=O)n3C)cc1,106,0.0,107,-0.1
CCOC(=O)c1ccc(N2NC(=O)C(=Cc3ccc([N+](=O)[O-])o3)C2=O)cc1,106,-0.2,104,0.0
CCN(C)C(=O)Oc1cccc(C(C)N(C)C)c1 (centres undefined),76,0.0,77,-0.1
COc1cc2ncnc(N3CCN(C(=O)Nc4ccc(Oc5ccccc5)cc4)CC3)c2cc1OC,92,-0.1,94,0.1
NCc1c[nH]c(=S)n1C1CCc2c(F)cc(F)cc2C1 (centres undefined),116,0.0[3.7 µM],112,-0.1
CCOc1cc(CC(=O)NC(CC(C)C)c2ccccc2N2CCCCC2)ccc1C(=O)O (centres undefined),108,-0.1,109,-0.1
CCC(C)(Oc1ccc(C2(c3ccc(OC(C)(CC)C(=O)O)cc3)CCCCC2)cc1)C(=O)O (centres undefined),101,-0.2[3.7 µM],97,-0.3
Nc1ncn(C2OC(CO)C(O)C2O)c(=O)n1 (centres undefined),101,-0.1[3.7 µM],99,-0.3
COc1ccc(C(=O)C(=O)c2ccccc2)cc1,116,0.0,119,0.0
Cc1[nH]cnc1CN1CCc2c(c3ccccc3n2C)C1=O,109,0.0,113,0.1
